Assay outcomes (PubChem)
NPYLR7 ag = mosquito NPYLR7 agonism | HEK293T NPYLR7/Galpha15, GCaMP6s calcium fluorescence | activation, % at 10 µM | 0.15% of 270,000 active; in the data active = activation above about 40%;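 note: 0% = vehicle and 100% = reference agonist at the receptor; some compounds past the cut are filed as inactive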
NPYLR7 ag max-min = also measured in NPYLR7 ag; calls as there; activation, %; measured here: Max-Min RFU normalised activation; some inactives read as strong as hits;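 span of the calcium signal over five minutes; 0% = vehicle and 100% = native peptide agonist; compound fluorescence can raise it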
The depositor's hits bear a star; & = joins results of further samples. The list is partial. The share of hits here may be higher or lower than overall.

Sequence of screens: NPYLR7 ag, NPYLR7 ag max-min
CCC(C(=O)N(Cc1cc(NC(=O)c2ccccc2Cl)ccc1N(C)C)C1CCCCC1)c1ccccc1 (stereo unspecified)
  16, 14
O=C(NCCc1cccc(Cl)c1)c1ccc(-c2cc(-c3ccccc3)n[nH]2)cc1
  1, 4
COC(=O)c1coc(CN2C[C@H]3CC=C(C)C[C@H]3C2)n1
  -3, -4
Cc1cc(Cl)ccc1C(=O)C1CCCN(C(=O)c2cncs2)C1 (stereo unspecified)
  3, 1
O=C(C1CCN(C(=O)[C@@H]2CCCN2C(=O)/C=C/c2ccc(OC(F)(F)F)cc2)CC1)N1CCCCC1
  1, -1
CCN(C)C(=O)c1nn(-c2cccc(C(F)(F)F)c2)c(=O)n(Cc2ccc(C)cc2)c1=O
  -4, 4
Cc1c(=O)n(OCc2ccc(Oc3ccccc3)cc2)c2ccccc2[n+]1[O-]
  20, 11
CC(=O)NC(C(=O)N1CCCC(C)C1)C(C)C (stereo unspecified)
  2, 2
CCCCCCCC(=O)N1CCN(c2nc(Cc3cccc(OC)c3)ns2)CC1
  -10, -1
Cc1cc(OCC(=O)Nc2cc(C)n3nc(C(F)(F)F)nc3n2)ccc1C(C)C
  -3, -3

3 entries from above, arranged by SMILES length, lowest first.
Sequence of screens: NPYLR7 ag, NPYLR7 ag max-min
O=C(NCCc1cccc(Cl)c1)c1ccc(-c2cc(-c3ccccc3)n[nH]2)cc1
  1, 4
CCN(C)C(=O)c1nn(-c2cccc(C(F)(F)F)c2)c(=O)n(Cc2ccc(C)cc2)c1=O
  -4, 4
CCC(C(=O)N(Cc1cc(NC(=O)c2ccccc2Cl)ccc1N(C)C)C1CCCCC1)c1ccccc1 (stereo unspecified)
  16, 14

Remaining list, next part.
Sequence of screens: NPYLR7 ag, NPYLR7 ag max-min
CN1CCCN(c2ncccc2CNC(=O)c2c[nH]c3ccccc23)CC1
  11, 9
CC(C)C(NC(=O)c1ccccn1)c1ccccc1 (stereo unspecified)
  9, 2
CCc1nc(COC(=O)CNC(=O)CCC2CCCC2)cs1
  -6, -8
C=C(C)CN(CC)C(=O)c1ccc(-c2ccc3c(c2)OCCO3)s1
  3, 1
CCCCn1c(CN(C)C(C)c2ccccc2OC)cnc1S(=O)(=O)CC (stereo unspecified)
  14, 9
N#CC1(C(=O)Nc2ccc3c(c2)S(=O)(=O)C=C3)CCCCC1
  5&12, 3&7
CNC(=O)[C@@H]1C[C@@H](n2cc(CN(C)C(=O)c3cccc(Cl)c3)nn2)CN1
  3, 2
O=C(Nc1ccc(-c2cscn2)cc1)C1CCCN(C(=O)Cc2ccccc2F)C1 (stereo unspecified)
  9, 5
COc1ccc(C=NOCc2ccc(Br)cc2)c(OC)c1
  6, 4
CSc1ccccc1NC(=O)N1CCCC(C(=O)c2ccc3c(c2)OCO3)C1 (stereo unspecified)
  8, 0

Additional compounds follow:
Sequence of screens: NPYLR7 ag, NPYLR7 ag max-min
CN(CC1CCCCO1)c1nnc(C(F)F)s1 (stereo unspecified)
  -2, 0
O=C(N1CCCC(N2CCCC2)C1)C1(c2ccc(Cl)cc2)CCC1 (stereo unspecified)
  5, 0
COC(=O)CCCC(=O)Nc1ccc2sc(C)nc2c1
  -10, -16
CCOc1ccc(S(=O)(=O)NCCn2ncc3c(N4CCCC4)ncnc32)cc1
  1, -1
CCc1c(C)cc(C(=O)N2CCCC(O)(CN(C)C)C2)c(=O)n1C (stereo unspecified)
  -2, -4
Cc1nc(C(F)(F)F)ccc1C(=O)Nc1ccccc1CS(C)(=O)=O
  -2, -3
C#Cc1cccc(NC(=O)C(C(C)C)n2cnc3ccccc32)c1 (stereo unspecified)
  2, -1
Cc1noc(NC(=O)c2cc(C)c(OCc3cccnc3)c(C)c2)n1
  3, 3
CCN(CC)C(=O)Cn1cc(SCC(=O)NCc2ccc(C)cc2)c2ccccc21
  -3, -7
COc1ccc(C(O)C(C)N2CCN(CC(=O)NC3CC3)CC2)cc1 (stereo unspecified)
  -2, 9

The results go on:
Sequence of screens: NPYLR7 ag, NPYLR7 ag max-min
CCCCc1nc(N2CCCN(C(=O)c3ccc([N+](=O)[O-])cc3)CC2)c2c(-c3ccc4ccccc4c3)noc2n1
  14, 11
Cc1n[nH]c(C)c1NC(=O)CN1CC2CCCCC21c1ccccc1 (stereo unspecified)
  4, 2
O=C(Nc1cccs1)N1CCC(c2nnc(C3CC3)o2)CC1
  -16, -21
Cc1cccc(CN(CCN2CCOCC2)CC(O)Cc2ccccc2)c1 (stereo unspecified)
  -5, 6
CCOc1ccc(-c2nc(C(=O)N(C)C3CCC3)cs2)cc1
  4, 2
O=C(NCc1ccc(S(=O)(=O)N2CCOCC2)s1)c1cnccn1
  25, 14
CCN(CC)S(=O)(=O)c1ccc(CNC(=O)Nc2ccc(C)cc2)s1
  10, 9
CCOc1ccccc1N=C1SCCN1c1ccccc1
  26, 27
Cn1cccc1C=C(C#N)c1nc(-c2cccs2)cs1
  0, -2
COc1ccccc1N1CCN(C(=O)c2cc3ccccc3oc2=O)CC1
  0, -4

The results go on.
Sequence of screens: NPYLR7 ag, NPYLR7 ag max-min
C=CCN1C(=O)CSC1=NS(=O)(=O)c1ccc(Cl)s1
  8, 3
Cc1cccc2nc(-c3ccc(Cl)cc3)c(NC3CCCCC3)n12
  5, 6
NC(=O)c1ccc(/C=C/C(=O)NC2CCC(C(F)(F)F)CC2)cc1 (stereo unspecified)
  -4, -4
Cc1ccn(-c2ccc(Nc3ccc(NS(=O)(=O)c4ccc(C)c(C)c4)cc3)nn2)n1
  -3, -7
CS(=O)(=O)CCC(=O)NC1CC(c2cccc(Cl)c2)C1 (stereo unspecified)
  -4, -6
Cc1cccc(NC(=O)C(=O)NCCCO)c1C
  20, 15
CCOC(=O)c1cc(CSC(=N)N)c(CC)o1
  -7, -14
Cc1cnn(C(C)CNC(=O)c2cc(COc3cccc(F)c3)[nH]n2)c1 (stereo unspecified)
  6, 1
CCCCCNC(=O)c1cc(-c2ccccc2OC)nc2cc(-c3ccccc3)nn12
  14, 16
CCC(C(=O)N1CCC2(CCCO2)CC1)N1Cc2ccccc2C1=O (stereo unspecified)
  5, 5

The results go on.
Sequence of screens: NPYLR7 ag, NPYLR7 ag max-min
CC(C)S(=O)(=O)Oc1ccc(CN(CCN(C)C)C(=O)c2ccco2)cc1
  27, 35
COc1ccc(-n2c(-c3ccccc3)cc(C(=O)N3CCN(S(C)(=O)=O)CC3)c2C)cc1OC
  -6, 2
COc1cccc(C(=O)N(CC(=O)N2CCc3sccc3C2COc2ccc(Cl)cc2)CC2CCCO2)c1 (stereo unspecified)
  -4, 0
NC(=O)COC(=O)C12CC3CC(CC(O)(C3)C1)C2
  3, 3
Cn1c(=O)[nH]c2ncn(C)c2c1=O
  1&-2, -1&-20
O=C(c1cccc(F)c1)N1CCCC(OCc2ccc(C(F)(F)F)cc2)C1 (stereo unspecified)
  -6, 1
Nc1cc(-c2cccc(Cl)c2)nn1-c1ccc(C(=O)NCC2CCCCC2)cc1
  5, -3
Cc1nc2ccc(C(=O)N3CCN(c4ccccc4)CC3)cn2c1N(C)CC1CCCCC1
  -1, -6
COCCCN(Cc1csc(COc2ccccc2)n1)C(=O)c1cccc(C)c1
  18, 17
CN(C)CCn1c2c(c(SCC(=O)Nc3ccc([N+](=O)[O-])cc3)nc1=O)CCCC2
  1, 2

Reprinted at random: 5 entries already listed
Sequence of screens: NPYLR7 ag, NPYLR7 ag max-min
Cc1nc2ccc(C(=O)N3CCN(c4ccccc4)CC3)cn2c1N(C)CC1CCCCC1
  -1, -6
CN(C)CCn1c2c(c(SCC(=O)Nc3ccc([N+](=O)[O-])cc3)nc1=O)CCCC2
  1, 2
COc1cccc(C(=O)N(CC(=O)N2CCc3sccc3C2COc2ccc(Cl)cc2)CC2CCCO2)c1 (stereo unspecified)
  -4, 0
COCCCN(Cc1csc(COc2ccccc2)n1)C(=O)c1cccc(C)c1
  18, 17
Cn1c(=O)[nH]c2ncn(C)c2c1=O
  1&-2, -1&-20

Continued:
Sequence of screens: NPYLR7 ag, NPYLR7 ag max-min
Cc1ccc(S(=O)(=O)N2CCC(C(=O)N(C)C3CCC(C)CC3)CC2)cc1C (stereo unspecified)
  7, 10
O=C(OCc1ccccc1)[C@@H]1CCCN1C(=O)C1CC=CCC1C(=O)N1CCc2ccccc2C1 (stereo partly specified)
  -7, -15
COc1ccc(Cn2c(-c3cnc4ccccc4c3)nc3ccccc3c2=O)c(OC)c1
  7, 4
Cc1nc2ccccc2n(C(C(=O)NC2CC2)c2ccccc2)c1=O (stereo unspecified)
  1, -1
CCOC(=O)CN1N=C(C)Cn2c1nc1c2c(=O)n(CC(C)C)c(=O)n1C
  0, 6
Cc1cc(C)cc(C2(C(=O)Nc3cccc(-n4c(C)c[nH]c4=O)c3)CCC2)c1
  12, 8
Cc1ccccc1CS(=O)(=O)N(CCC#N)C1CC1
  3, 6
COc1ccc(COc2ccc(C(=O)O)cc2OC)cc1Br
  19, 14
O=C1NC(=O)C2C1ON(c1ccccc1)C2c1ccc(F)cc1 (stereo unspecified)
  13, 4
CN(C)c1ccc(C(=O)N2CCN(C(c3ccc(F)cc3)c3ccc(F)cc3)CC2)cc1
  3, -1

Carrying on.
Sequence of screens: NPYLR7 ag, NPYLR7 ag max-min
CC(c1cncs1)N(C)C(=O)c1coc(COc2ccc3c(c2)OCO3)n1 (stereo unspecified)
  -3, -7
CCOC(=O)C1CCCN(C(=O)c2cnn(-c3ccc(F)cc3)c2C)C1 (stereo unspecified)
  18, 16
CC(=O)NC1=NC(=O)/C(=C/c2cn(C(C)=O)nc2-c2ccccc2)S1
  -10, -14
Cc1ccc(NC(=O)Cc2c(C)nn(-c3ccc(C(F)(F)F)cn3)c2C)cc1
  9, 2
CCn1cc(S(=O)(=O)c2ccc(OC)cc2)c(=O)c2cc(F)c(N3CCCCC3)cc21
  -12, -15
CCC(=O)N1CCC(n2cnc3ccc(C)cc32)CC1
  5, 2
CCN(CC)C(=O)C(C#N)=Cc1ccc(C#N)cc1
  0, 4
Cc1cccc(NC(=O)C(C)N2CCN(C(=O)C3CCCO3)CC2)c1 (stereo unspecified)
  0, 18
CC(C)(C)C(=O)CNC(=O)c1ccccc1NS(=O)(=O)c1ccc(F)c(F)c1
  5, 3
O=C(COc1ccc(Cl)cc1)Nc1ncc([N+](=O)[O-])s1
  -4, -10

(cont.)
Sequence of screens: NPYLR7 ag, NPYLR7 ag max-min
COC(=O)CCCCN1CCOC(c2ccc(Cl)c(Cl)c2)C1 (stereo unspecified)
  -3, -5
COc1ccc(N2C(=O)c3cccc4cccc(c34)C2=O)cc1OC
  -6, -11
CCC(=O)NCCc1nc2ccccc2n1Cc1ccccc1F
  -8, -7
Cc1nc(Cc2noc(C3(Sc4ccccc4)CCCC3)n2)no1
  5, 0
CCCSC1=C(C#N)C2(CCCC2)C(C#N)C(=O)N1 (stereo unspecified)
  1, 1
CC1CCC(C(C)C)C(OP(=O)(c2ccccc2)C(O)c2cccnc2)C1 (stereo unspecified)
  4, 49
CN1C(=O)C2C(c3ccccc3)NN(Cc3ccccc3)C2C1=O (stereo unspecified)
  40, 40
CC(CC#N)N1CCN(C(c2ccccc2)c2ccccc2)CC1 (stereo unspecified)
  6, 4
CCC(NCc1cnn(C)c1)c1cccc(Cl)c1 (stereo unspecified)
  0, -3
CC(C)=NOC(C)C(=O)NCCc1cnc2cc(C)ccn12 (stereo unspecified)
  4, 6

Whole records, looked up by structure.
CCC(NCc1cnn(C)c1)c1cccc(Cl)c1 (stereo unspecified) reads NPYLR7 ag: 0; NPYLR7 ag max-min: -3
CC(CC#N)N1CCN(C(c2ccccc2)c2ccccc2)CC1 (stereo unspecified) reads NPYLR7 ag: 6; NPYLR7 ag max-min: 4

More structures follow:
Sequence of screens: NPYLR7 ag, NPYLR7 ag max-min
CCOC(=O)N1CCN(Cc2nc3c(c(=O)n(C)c(=O)n3C)n2CCC(C)C)CC1
  7, 8
CCc1nc2ccc(C(=O)N3CCNC(=O)C3)cn2c1N(C)C(=O)C1CCCCC1
  -9, -14
Cc1ccc(N2C(=O)CSC23C(=O)Nc2ccccc23)cc1 (stereo unspecified)
  15, 10
CCCCCn1c(SC(C)CC)nc2c1c(=O)[nH]c(=O)n2C (stereo unspecified)
  0, -3
CC(C(N)=O)N1C(=O)C2C3C=CC(C3)C2C1=O (stereo unspecified)
  -3, -4
CCOc1ccc(-n2c(=O)[nH]c3c(C(N)=O)nc(-c4cccc(OC)c4)nc32)cc1
  2, 0
CC1(C)CC2CC(C)(CN2C(=O)c2cc3n(n2)CCN(Cc2c(Cl)cccc2Cl)C3=O)C1 (stereo unspecified)
  18, 7
C=CCNc1nsc(C(=O)c2ccc(OC)cc2)c1N
  -5, -5
CCN(CC)S(=O)(=O)c1cccc(N=C2C(=O)N(C)c3ccccc32)c1
  5, 3
Oc1c(C(c2ccccn2)N2CCOCC2)ccc2cccnc12 (stereo unspecified)
  0, -1

(cont.)
Sequence of screens: NPYLR7 ag, NPYLR7 ag max-min
Cc1ccc2nc(C)c(NC(=O)CC3CCCC3)c(=O)n2c1
  3, 0
Cc1cc(C(=O)NCC(C)(C)c2ccccc2)n[nH]1
  -2, 640
O=C1N(CC2CC2)C(c2ccoc2)NC12CCCC2 (stereo unspecified)
  -2, -1
C=CCN1C(=O)NC(c2ccccc2Cl)C2=C1CN(CC(=O)NCCc1ccc(OC)c(OC)c1)C2=O (stereo unspecified)
  -8, -6
CC(C)c1cc(C2CCN(C(=O)c3c4c(nn3C)CCCC4)CC2)[nH]n1
  4, -1
FC(F)(F)c1nnc2n1Nc1nc3ccccc3nc1S2
  27, 24
O=C1NC2(CCCN(Cc3ccccc3)C2)C(=O)N1CN1CCOCC1 (stereo unspecified)
  -1, 6
Cc1nn(C)c(Oc2cccc(F)c2)c1NC(=O)c1ccc(F)c(F)c1
  1, 5
Cc1nc2ccc(S(=O)(=O)NCCn3nc(-c4cccnc4)ccc3=O)cc2s1
  8, -2
